PINK1 expr mod: modulators of PINK1 expression; 410,000 compounds, 0.2% hits; PINK1 immunofluorescence, high-content cytometry, 24 h; Potency, µM (titrated, usually from 76.6 µM), without a hit: top-dose activation (PINK1 increase), actives largely listed as activators; active = well fitted activation curve with a large enough effect; inconclusive = small, poorly fitted or top-dose-only effect; inactive = flat fitted curve, though single readings scatter; cell line not stated here;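 further: % of control where 0% means no effect; nearly all actives have a fitted effect of over 65% in size; a mitochondrial uncoupler was the plate control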
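Fluorescence from anti-PINK1 antibody, together with nuclear and cell stains, was scanned on a laser-scanning cytometer. Before staining, stable-line cells were incubated 24 hours with compounds at 5 concentrations; primary antibody 12 h at 10 degrees C.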
* = called active by the depositor; ? = inconclusive. Potency means the concentration at half of the fitted maximal effect. This is a subset (hit frequency here may not be typical).

PINK1 expr mod,compound
0.6%,COc1ccc(S(=O)(=O)c2cn(Cc3ccccc3)c3ccc(OC)cc3c2=O)cc1
5.0%,CC(NC(=O)C(=O)Nc1c2c(nn1-c1ccccc1)CSC2)c1ccccc1 (stereo unspecified)
4.3%,CCOC(=O)c1c(C)c(C(=O)NCCc2ccc(OC)cc2)c(C)n1CC
3.1%,O=C(CCCCn1c(=O)c2ccccc2n(CC(=O)Nc2cccc(C(F)(F)F)c2)c1=O)NCc1ccc2c(c1)OCO2
-0.4%,CC1N=C2c3ccccc3N=C(SCC(=O)NCCc3ccccc3)N2C1=O (stereo unspecified)
2.8%,O=C(Cn1cc(SCc2cccc(F)c2)c2ccccc21)N1CCCC1
0.3%,COc1ccccc1NC(=O)CSc1nc(-c2ccc(C(C)(C)C)cc2)c(C#N)c(=O)[nH]1
0.7%,COc1cc(NC(=O)CCc2c(C)nc3c(c(C)nn3-c3ccccc3)c2C)cc(OC)c1OC
-0.1%,O=C(Nc1ccc2nc(SCC(=O)N3CCCc4ccccc43)sc2c1)c1ccccc1
1.0%,CC(C)c1ccc(NC(=O)CN2C(=O)CCc3cc(S(=O)(=O)N4CCOCC4)ccc32)cc1
0.8%,COc1ccc(CNS(=O)(=O)c2cnc(N)nc2)cc1
4.2%,CCOc1ccc(C2C(=O)N(C3CCCCCC3)CC(=O)N2Cc2ccccc2)cc1OC (stereo unspecified)
1.1%,CCOc1ccccc1NC(=O)N1CCc2c(sc3c2CCCC3)C1c1ccccc1 (stereo unspecified)
3.1%,CCN(c1ccccc1)c1nnc(NC(=O)Nc2ccc(Br)cc2)s1
0.3%,CC(=O)c1ccc(NC(=O)CSc2nc(-c3ccc(C)cc3)nc3c2c(=O)n(C)c(=O)n3C)cc1
0.8%,CCc1ccc2oc(-c3cc(NC(=O)c4cc(OC)c(OC)c(OC)c4)ccc3O)nc2c1
-0.1%,Cc1ccc(NC(=O)N2CCc3cc(S(=O)(=O)N4CCC(C)CC4)ccc32)cc1F
1.1%,CCOC(=O)CCC(=O)Nc1ncnc2c1C(c1ccccc1)c1c(ccc3ccccc13)O2 (stereo unspecified)
-1.6%,Cc1cc(F)ccc1NC(=O)Cn1nc(N2CCN(c3ccccc3)CC2)ccc1=O
1.7%,COc1ccccc1/C=C/c1nc(C#N)c(NC(C)c2ccccc2)o1 (stereo unspecified)
0.4%,CCOC(=O)C(CC)n1nnc2sc(-c3ccccc3)cc2c1=O (stereo unspecified)
1.5%,CC(Oc1ccc(F)cc1)C(=O)NCC1(N(C)C)CCCCC1 (stereo unspecified)
0.2%,Fc1ccc(-c2nc(-c3c[nH]c4ccccc34)cs2)cc1
?,Clc1ccc(/C=C/c2ccncc2)cc1Cl
3.9%,COc1cc(OC)c(NC(=O)C(C)n2c(=O)cc(-c3ccccc3)c3c(C)nn(C)c32)cc1Cl (stereo unspecified)
2.0%,CC(C)(C)OC(=O)N1CCN(/[N+]([O-])=N/Oc2ccc([N+](=O)[O-])cc2[N+](=O)[O-])CC1
11.1%,COC(=O)c1ccc2c(c1)N(CC(=O)Nc1cccc(Cl)c1C)C(=O)c1ccccc1S2
-0.3%,Cc1cccc(N2CCN(c3c4c(nc5nncn35)CCC4)CC2)c1C
1.0%,Cc1ccc(NC(=O)CCCN2C(=O)COc3ccc(C)cc32)c(Cl)c1
2.5%,Cc1cccc(N2C(=O)C(CC(=O)Nc3ccccc3)N(C3CCCCC3)C2=O)c1 (stereo unspecified)
-0.7%,O=C(COc1ccc(F)cc1)NC1CC(=O)N(c2ccc3c(c2)OCCO3)C1 (stereo unspecified)
7.2%,CC1=C(c2ccc(C)c(C)c2)S(=O)(=O)N=C1N1CCC(C(=O)NCc2ccc(N(C)C)cc2)CC1
1.2%,COc1ccc(NC(=O)CSCc2cc(=O)c3cc(Cl)ccc3[nH]2)cc1
-0.6%,CC1CCN(c2nc3ccc(C(=O)NC(C)C)cc3s2)CC1
1.6%,CCCCCn1cc2c(c1-c1ccc(Cl)cc1)c(=O)n(C)c(=O)n2C
-0.1%,COc1ccc(C)cc1NC(=O)C(=O)NCCc1csc2nc(-c3ccccc3F)nn12
8.7%,Cc1ccc(-n2ncc3c(NCCCc4ccccc4)ncnc32)cc1
1.4%,Cc1ccccc1NS(=O)(=O)c1nnc(NC(=O)c2ccco2)s1
1.4%,Cc1ccc(NC(=O)N2CC=C(c3c[nH]c4ccccc34)CC2)cc1Cl
-0.1%,COc1ccccc1-c1nc2cc(NC(=O)c3ccccc3Cl)ccc2o1

Overlap with the part before: six entries, then new ones.
PINK1 expr mod,compound
1.6%,CCCCCn1cc2c(c1-c1ccc(Cl)cc1)c(=O)n(C)c(=O)n2C
-0.1%,COc1ccc(C)cc1NC(=O)C(=O)NCCc1csc2nc(-c3ccccc3F)nn12
8.7%,Cc1ccc(-n2ncc3c(NCCCc4ccccc4)ncnc32)cc1
1.4%,Cc1ccccc1NS(=O)(=O)c1nnc(NC(=O)c2ccco2)s1
1.4%,Cc1ccc(NC(=O)N2CC=C(c3c[nH]c4ccccc34)CC2)cc1Cl
-0.1%,COc1ccccc1-c1nc2cc(NC(=O)c3ccccc3Cl)ccc2o1
1.0%,COc1cc2c(cc1NC(=O)COc1cc(C)ccc1C)oc1ccccc12
1.3%,CCOc1ccc(CNC(=O)c2ccc(-c3nc(CSc4ccc(C)cc4)c(C)o3)cc2)cc1
3.9%,COc1ccc(C)cc1NC(=O)CN(c1cc(C(F)(F)F)ccc1Cl)S(C)(=O)=O
1.3%,Cc1cccc(N2CCN(C(=O)C3CCCN(C(=O)c4cc5sccc5n4C)C3)CC2)c1C (stereo unspecified)
2.6%,Cc1nn(C)c2c1c(-c1ccccc1)cc(=O)n2Cc1ccccc1C#N
-0.5%,COc1ccccc1N1CCN(C(=O)c2nn(-c3ccc(C)cc3)c(=O)n(C)c2=O)CC1
-0.6%,Cc1cccc(OCCn2c(-c3ccc(Cl)cc3)nc3ccccc3c2=O)c1
0.1%,CCn1cc(C(=O)NCCc2ccccc2)c(=O)c2cc(S(=O)(=O)N3CCOCC3)ccc21
-0.7%,COc1ccccc1C(=O)NCC(c1cccnc1)N1CCc2ccccc2C1 (stereo unspecified)
2.8%,Cc1ccc(C2NC(c3ccc4c(c3)OCO4)=CC(c3cc(Br)ccc3O)N2)cc1 (stereo unspecified)
1.0%,CS(=O)(=O)c1ccccc1-c1nnc(NC(=O)c2ccc3c(c2)OCCO3)o1
1.3%,Cc1ccc2occ(CC(=O)N(Cc3ccc(N(C)C)cc3)C3CCS(=O)(=O)C3)c2c1 (stereo unspecified)
18.9%,CC1CCc2nc(NC(=O)Cc3ccc(Cl)cc3)sc2C1 (stereo unspecified)
-1.1%,COc1cc(NC(=O)CSc2nc3nc(C)c(Cc4ccccc4)c(C)n3n2)cc(OC)c1OC
7.4%,CCCOc1ccccc1C1C(C(=O)Nc2ccccc2)=C(C)Nc2nnnn21 (stereo unspecified)
1.5%,COc1ccc(NC(=O)Cn2cc(S(=O)(=O)N3CCC(C)CC3)c3ccccc3c2=O)cc1Cl
0.3%,Cc1ccc(NC(=O)Cn2c(=O)n(Cc3ccco3)c(=O)c3sc4ccccc4c32)c(C)c1
0.6%,COCCNC(=O)CSc1nc2cc3c(cc2c(=O)n1CCCCCC(=O)NCc1ccc(OC)cc1)OCO3
-0.7%,O=S(=O)(NCC(c1ccco1)N1CCN(c2ccc(F)cc2)CC1)c1cc(F)ccc1F (stereo unspecified)
-2.0%,O=C(Nc1cc(Cl)cc(Cl)c1)c1ccc(F)c(S(=O)(=O)N2CCc3ccccc32)c1
28.6%,Cn1nnc2c(NCc3ccc(Cl)cc3)ncnc21
9.0%,COc1ccccc1NC(=O)c1oc2ccccc2c1NC(=O)c1ccccc1C(F)(F)F
-1.5%,CC(=O)N1CCCc2cc(S(=O)(=O)N3CCN(c4ccccc4F)CC3)ccc21
1.5%,CCc1ccc(NC(=O)CN2C(=O)C(c3ccc(C)cc3)=NC23CCCCC3)cc1
2.6%,Cc1nnc(N2CCN(c3ccccc3F)CC2)c2c1nnn2Cc1ccccc1Cl
1.4%,COc1ccc(NC(=O)Nc2cc(C(=O)NCc3ccc(C)cc3)ccc2N2CCCC2)cc1
3.4%,COc1ccc(Cl)cc1NC(=O)CN1C(=O)C(C)(C)c2cc(S(=O)(=O)N3CCCCC3)ccc21
0.3%,CCc1ccccc1NC(=O)CCc1c(C)nc2cc(-c3ccccc3)nn2c1C
0.6%,Cc1cccc(N2CCN(C(=O)CCn3c(=O)c4cccn4c4cccnc43)CC2C)c1 (stereo unspecified)
-0.4%,CCN1CCN(CCCNC(=O)Cn2nc(C)n3c(cc4c(OC)cccc43)c2=O)CC1
-0.8%,COc1ccc2oc(=O)c(-c3csc(/C(C#N)=C/c4ccc(F)cc4)n3)cc2c1
2.7%,O=C(CSc1nccn1C1CCCC1)Nc1cc(C(F)(F)F)ccc1Cl
2.1%,Cc1c(Cl)cccc1-n1ncc(C(=O)NCc2cccs2)c1C1CCN(C(=O)OC(C)(C)C)CC1
1.2%,Cc1cccc(N(C)S(=O)(=O)c2nnc(NC(=O)C(C)(C)C)s2)c1
0.5%,COc1cccc(-n2c(SC)nnc2C2CCN(CCC(C)c3ccc(C)o3)CC2)c1 (stereo unspecified)
-1.9%,Cc1cc(C)n2c(Nc3ccccc3)c(-c3ccccc3)nc2n1
0.0%,Cc1nc2nc(C)c(NS(=O)(=O)c3ccc(F)cc3)c(=O)n2[nH]1
-0.1%,CN(Cc1ccccc1)S(=O)(=O)c1ccc(NC(=O)c2cc(=O)c3ccccc3o2)cc1
1.9%,N#C/C(=C\c1ccc(Cl)cc1)c1nc(-c2cc3ccccc3oc2=O)cs1
-0.4%,O=C(CN1CCN(Cc2cccc(Cl)c2)C1=O)NCc1ccc(F)cc1
3.6%,Cc1ccc(C)c(NC(=O)Cn2c(-c3nonc3N)nc3ccccc32)c1
0.1%,O=C(O)CC(NS(=O)(=O)c1ccc(Br)s1)c1ccccc1 (stereo unspecified)
1.5%,Cn1c(=O)c2c(SCC(=O)NCc3ccc(F)cc3)nc(-c3ccccc3Cl)nc2n(C)c1=O
-2.6%,CCOC(=O)Cn1c(=O)oc2cc(S(=O)(=O)Nc3ccccc3F)ccc21
-1.5%,CCOc1ccc(CNC(=O)c2ccc(Sc3ccc(C)cc3)c(N)c2)cc1OC
-0.1%,COC(=O)C1CCN(Cc2ccc3c(c2)CN(C(=O)c2cc4ccccc4n2C)CCO3)CC1
1.9%,Cc1cc(NC(=O)COC(=O)c2ccccc2OCCOc2ccccc2)ccc1Br
1.2%,CCOc1ccc(OCC)c(NC(=O)CN(c2ccc(C)cc2)S(=O)(=O)c2c(C)n[nH]c2C)c1
-0.5%,O=C(Cn1ncc2c3ccccc3n(Cc3ccc(F)cc3)c2c1=O)NCc1ccccn1
0.9%,CCNC(=O)c1ccc(CSc2nc3cccnc3n2Cc2ccc(OC)cc2)cc1
?,Cc1c(C(=O)Nc2ccccc2)sc2nc(-c3cc4ccccc4oc3=O)[nH]c(=O)c12
0.1%,Cc1c(NC(=O)c2ccc(Cl)cc2)cc(C(C)C)c(O)c1S(=O)(=O)c1ccccc1
3.5%,O=C(NCc1ccc(Cl)cc1)C(=O)Nc1ccc(Br)cc1
-0.6%,Cc1ccc2c(c1)N(C(=O)CCC(=O)Nc1ccc(F)cc1F)CC(C)O2 (stereo unspecified)
2.7%,Cc1nn2c(=O)cc(COC(=O)c3ccc(NC(=O)c4cccs4)cc3)nc2s1
-0.2%,Cc1ccc2sc(N(Cc3cccnc3)C(=O)C3COc4ccccc4O3)nc2c1C (stereo unspecified)
2.4%,Cc1cccc(CCNC(=O)c2cnc3c(C)cccn3c2=O)c1
-0.1%,CCc1ccccc1NC(=O)c1cc2sc(Cl)cc2n1CC
1.5%,COc1cc2ccccc2cc1C(=O)Nc1ccc2oc(-c3ccc(F)cc3Cl)nc2c1
-0.2%,Cc1ccc(CN2CCCN(CC(=O)Nc3ccc(C)cc3C)S2(=O)=O)cc1

Part of the list above in order of count of non-hydrogen atoms, low to high.
PINK1 expr mod,compound
-0.6%,Cc1ccc2c(c1)N(C(=O)CCC(=O)Nc1ccc(F)cc1F)CC(C)O2 (stereo unspecified)
5.0%,CC(NC(=O)C(=O)Nc1c2c(nn1-c1ccccc1)CSC2)c1ccccc1 (stereo unspecified)
-0.7%,COc1ccccc1C(=O)NCC(c1cccnc1)N1CCc2ccccc2C1 (stereo unspecified)
-2.0%,O=C(Nc1cc(Cl)cc(Cl)c1)c1ccc(F)c(S(=O)(=O)N2CCc3ccccc32)c1
0.6%,Cc1cccc(N2CCN(C(=O)CCn3c(=O)c4cccn4c4cccnc43)CC2C)c1 (stereo unspecified)
0.1%,CCn1cc(C(=O)NCCc2ccccc2)c(=O)c2cc(S(=O)(=O)N3CCOCC3)ccc21
1.2%,CCOc1ccc(OCC)c(NC(=O)CN(c2ccc(C)cc2)S(=O)(=O)c2c(C)n[nH]c2C)c1

(next part)
PINK1 expr mod,compound
-0.4%,CCc1cc2c(cc3c(=O)n(CC(=O)NCCOC)nc(CC)n32)s1
5.6%,COc1ccc(/C=C/c2ccc3ccccc3n2)c(OC)c1
1.3%,COc1ccc(Cc2c(C)nn(-c3nc(C)c(C(=O)Nc4ccc(C)cc4C)s3)c2C)cc1
-0.6%,Cc1ccc(Cn2c(=O)n(Cc3ccccc3Cl)c(=O)c3ccccc32)cc1
1.2%,Cc1cccc(N(Cc2cc3ccccc3[nH]c2=O)C(=O)c2cccc(Cl)c2)c1
3.3%,Cc1ccc(Cl)cc1NC(=O)c1sc2nc(C)c(C)c(C)c2c1N
0.0%,Cc1ccc(OCC(=O)Nc2ccc3nc(SCc4ccccc4)sc3c2)cc1
-0.9%,CCCCN(CCCC)C(=O)C1CCN(S(=O)(=O)c2cccc3nsnc23)CC1
27.9%,Cc1ccc(-n2c(=O)c3ccc(C(=O)NCc4ccccc4Cl)cc3n(CC(=O)Nc3cccc(Cl)c3)c2=O)cc1
1.2%,CCOc1ccccc1CNC(=O)c1sc2ncccc2c1-n1cccc1
2.0%,CCc1ccc(-n2c(=O)c3c4c(sc3n(CC(=O)NCCCOC)c2=O)CCCC4)cc1

Compound activity from PubChem BioAssay.
